ALR inh: human ALR oxidase inhibition via reduced H2O2 | P55789 | purified ALR, DTT oxidation, H2O2 HRP-luminol luminescence | inhibition, % (test concentration not listed) | 290,000 compounds, 3.8% hits | AID 485317;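 active = mean and each replicate at 75% or more; inconclusive = only one of the two met; inactive = neither met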;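 also: stock transfer was 7.5 nL into about 7.5 µL; 0% = neutral wells and 100% = wells with inactivated enzyme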
rRNA inh HTS: inhibits bacterial ribosomal RNA function over humanized ribosomes | E. coli WT GFP vs humanized-ribosome RFP mutants, fluorescence, 24 h; active compounds read low; DMSO median 0, no signal -100 | 350,000 compounds, 1.6% hits | GFP signal change (wild-type ribosome), % (concentration not given with the values);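 active = significant combined selectivity score with lowered wild-type GFP, culture density cut under 30%, mutant RFP and density less affected; inactive = any of these conditions unmet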; also: one replicate is shown; some compounds called inactive have numbers as strong as hits
T cruzi inh: T. cruzi replication inhibition; 300,000 compounds, 1.4% hits; inhibition, % (no concentration beside the values); AID 1885; T. cruzi beta-gal in NIH3T3, luminescence, 90 h;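 active = mean inhibition across valid replicates above about 55%, limit read from the data; inconclusive = mean below that limit but half or more replicates reach it; inactive = mean below it, under half of replicates reach it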;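 also: signal also drops with host cell toxicity which is not excluded here; 0% = plate median of DMSO wells and 100% = zero luminescence signal; higher percent means less beta-gal luminescence so fewer parasites; stock transfer was 50 nL into about 50 µL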
FGF22 binding: binders of recombinant human FGF22 by thermal shift. Q9HCT0. SYPRO orange fluorescence; percent of sucrose octasulfate shift, DMSO zero. calls only at 9.99 µM. 340,000 compounds, 1.5% hits. AID 651658;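 active = melting point raised past a set limit in the mean and every replicate; inconclusive = no clear call; three in four hits are not shown here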
Target sequence (Q9HCT0 whole entry, looked up): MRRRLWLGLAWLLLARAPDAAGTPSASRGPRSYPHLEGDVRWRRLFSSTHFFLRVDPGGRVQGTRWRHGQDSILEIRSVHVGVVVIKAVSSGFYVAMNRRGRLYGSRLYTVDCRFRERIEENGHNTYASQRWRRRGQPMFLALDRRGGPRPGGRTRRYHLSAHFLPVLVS
Calb FLC: affects C. albicans growth with fluconazole. growth inhibition, % (no concentration beside the values). 300,000 compounds, 0.57% hits. AID 1979. C. albicans CaCi-2 (fluconazole-resistant clinical isolate) + fluconazole, Alamar Blue growth, 48 h;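 active = most replicates above 75%; inconclusive = exactly half above 75%; inactive = most below 75%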;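 also: all wells also contain fluconazole at 8 µg/ml as a sub-toxic cotreatment; 0% = median of DMSO wells and 100% = median of geldanamycin control wells; wells of about 8 µL received 7.5 nL stock; the first replicate is given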
Beta apoptosis: beta cell apoptosis inhibition | INS-1E cytokine-induced death, ATP luminescence, 48 h; percent of positive-control rescue, neutral wells zero | protection from apoptosis, % (concentration not given with the values) | 300,000 compounds, 0.8% hits | AID 435005;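 active = all replicates at 75% or more, or half of them and the mean; inconclusive = half reach 75% but not the mean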;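 also: 0% = cytokine-treated negative control wells and 100% = positive control rescue; higher means more ATP so stronger rescue from cytokine killing; wells of about 40 µL received 100 nL stock; the first replicate is given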
AF4-AF9 inh: MLL-AF4/AF9 protein interaction inhibition; 350,000 compounds, 0.47% hits; AlphaScreen, biotin-AF4 peptide binding to FLAG-AF9; inhibition, % at 10 µM; P42568;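 active = every replicate reaching a set inhibition limit, whatever the replicate mean, cut at about 25% in these data; inconclusive = mean inhibition reaches that limit but some replicates miss it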;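 also: 0% = plate neutral control median and 100% = total signal loss; the record names both 10 and 1 µM as test concentration; the first replicate is given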
Target sequence (P42568 whole entry, looked up): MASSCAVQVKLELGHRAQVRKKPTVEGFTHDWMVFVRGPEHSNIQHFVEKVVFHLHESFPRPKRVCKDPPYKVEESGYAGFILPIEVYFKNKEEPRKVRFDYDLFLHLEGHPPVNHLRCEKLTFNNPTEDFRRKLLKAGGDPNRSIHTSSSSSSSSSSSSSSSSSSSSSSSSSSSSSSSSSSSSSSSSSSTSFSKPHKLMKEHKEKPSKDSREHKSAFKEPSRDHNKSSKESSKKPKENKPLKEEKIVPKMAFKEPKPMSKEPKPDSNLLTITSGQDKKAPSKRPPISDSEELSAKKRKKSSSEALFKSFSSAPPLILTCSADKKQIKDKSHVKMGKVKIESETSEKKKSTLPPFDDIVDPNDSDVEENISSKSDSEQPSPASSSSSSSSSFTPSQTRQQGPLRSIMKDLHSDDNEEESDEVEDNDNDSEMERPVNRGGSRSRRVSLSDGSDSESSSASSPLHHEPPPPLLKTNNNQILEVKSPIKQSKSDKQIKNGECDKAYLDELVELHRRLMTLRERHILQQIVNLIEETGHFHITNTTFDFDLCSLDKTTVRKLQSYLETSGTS
RanGTP-Imp inh: inhibitors of RanGTP-importin-beta interaction, primary screen, biochemical, FRET, CFP-Ran, YFP-importin-beta, homogeneous; AID 2216; 300,000 compounds, 1.1% hits; cell-free CFP-Ran/YFP-importin-beta FRET ratio; inhibition, % (test concentration not listed);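 active = most replicates above 15%; inconclusive = exactly half above 15%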;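 also: 0% = DMSO wells and 100% = Ran loaded with GDP instead of GTP; wells of about 40 µL received 100 nL stock; the first replicate is given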
rRNA inh HTS OD600: second read-out of rRNA inh HTS, no call of its own (marks repeat the call); OD600 change, %; measured here: OD600 growth;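 optical density of the mix in the first replicate; 0 = DMSO median and -100 = no signal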
rRNA inh HTS RFP: further read-out of rRNA inh HTS, marked with its call; RFP signal change, %; measured here: RFP humanized mutant strains;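 first replicate; 0 = DMSO median and -100 = no signal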
* = called active by the depositor; i = inactive; ? = inconclusive; . = no result given. Some of the compounds tested; the hit share may differ from the screen's.

#1 CN(C)S(=O)(=O)c1cccc(C(=O)Nc2ccccc2Cl)c1
#2 COc1ccccc1CNC(=O)CCNS(=O)(=O)c1ccc2c(c1)CC(C)N2C(C)=O (stereo not drawn)
#3 Cc1ccc(NC(=O)CCNC(=O)c2ccc(Cl)cc2)nc1
#4 CC(C)(C)NC(=O)CSc1nnc(-c2ccccn2)n1Cc1ccccc1
#5 CCOC(=O)C1C(=O)N(C(=O)c2ccc(OC)cc2)CC1c1ccccc1 (stereo not drawn)

entry no.,1,2,3,4,5
ALR inh,-7,-7,3,13,0
rRNA inh HTS,.,3,6,-3,.
rRNA inh HTS OD600,.,12,8,2,.
rRNA inh HTS RFP,.,1.7,-1.0,2.5,.
T cruzi inh,-1,-1,-3,4,-7
FGF22 binding,.,i,i,i,.
Calb FLC,8,-15,6,7,0
Beta apoptosis,1,.,0,1,-9
AF4-AF9 inh,.,-0.3,-3.0,1.2,.
RanGTP-Imp inh,-3.2,1.6,?,-3.3,-3.2

#6 CC(=O)Nc1sc2c(c1C(c1cccs1)N1CCOCC1)CCCC2 (stereo not drawn)
#7 COc1cc(/C=N\NC(=O)CC(=O)NCCc2ccccc2)ccc1O
#8 CCOc1cc(N2CCOCC2)c(OCC)cc1NC(=O)COc1ncnc2ccccc12
#9 Cc1[nH]nc2c1C(CC(C)C)C(C#N)=C(N)O2 (stereo not drawn)
#10 COc1ccc(N2C(N)=NC(N)=NC2(C)C)cc1

entry no.,6,7,8,9,10
ALR inh,1,99*,-4,18,.
rRNA inh HTS,.,5,.,4,.
rRNA inh HTS OD600,.,10,.,7,.
rRNA inh HTS RFP,.,2.3,.,-1.8,.
T cruzi inh,14,6,-13,-25,-5
FGF22 binding,.,i,.,i,.
Calb FLC,-12,-1,12,-11,-13
Beta apoptosis,2,-1,-2,4,10
AF4-AF9 inh,.,-0.9,.,-6.6,.
RanGTP-Imp inh,3.0,5.3,7.2,-1.8,-1.6

#11 O=C(Cn1cncn1)N/N=C/c1ccc(Cl)cc1
#12 CC1CCCN(c2nc(-c3cccnc3)nc3scc(-c4ccccc4)c23)C1 (stereo not drawn)
#13 COc1ccc(-c2csc(Nc3ccccc3)n2)cc1
#14 COc1cc(C(=O)NCC(=O)N/N=C/c2cccnc2)cc(OC)c1OC
#15 C=CCOc1ccc(C(c2c(C(=O)O)[nH]c3ccccc23)c2c(C(=O)O)[nH]c3ccccc23)cc1

entry no.,11,12,13,14,15
ALR inh,-6,-4,-11,-16,10
rRNA inh HTS,.,4,1,4,0
rRNA inh HTS OD600,.,-6,5,8,7
rRNA inh HTS RFP,.,2.7,0.2,0.5,1.7
T cruzi inh,-9,44,2,0,-5
FGF22 binding,.,i,i,i,i
Calb FLC,-6,4,14,4,-7
Beta apoptosis,3,56,.,-6,2
AF4-AF9 inh,.,6.8,1.2,45*,-3.1
RanGTP-Imp inh,2.4,?,1.2,-6.9,-0.6

#16 Cc1ccc(CNC(=O)c2ccccc2NS(C)(=O)=O)cc1
#17 O=C(CSc1n[nH]c(-c2ccccc2)n1)Nc1ccc(N2CCOCC2)cc1
#18 COc1ccc(C)cc1NC(=O)CCS(=O)(=O)c1ccc2c(c1)CCN2C(C)=O
#19 O=C(CSCc1nc2ccccc2[nH]1)N1CCN(c2ccc(F)cc2)CC1
#20 CN(C)C(=S)Nn1c(-c2ccccc2)nc2ccccc2c1=O

entry no.,16,17,18,19,20
ALR inh,0,41,-9,63,6
rRNA inh HTS,.,0,6,.,2
rRNA inh HTS OD600,.,6,10,.,1
rRNA inh HTS RFP,.,-0.4,-0.5,.,-0.3
T cruzi inh,-6,-8,6,-7,-22
FGF22 binding,.,i,.,.,i
Calb FLC,14,-16,-34,-2,-6
Beta apoptosis,-2,23,-7,4,0
AF4-AF9 inh,.,-2.2,0.7,.,-2.7
RanGTP-Imp inh,6.3,-1.1,3.9,4.7,-1.2

#21 CC(=O)Nc1ccc(NC(=O)c2ccc(-c3ccc([N+](=O)[O-])cc3)o2)cc1
#22 C=CCn1c(-c2csc(-c3ccc(OC)c(OC)c3)n2)n[nH]c1=S
#23 COc1ccc(C2C(C#N)=C(N)Oc3c2oc(CO)cc3=O)cc1 (stereo not drawn)
#24 Cc1ccc(NC(=O)COC(=O)c2nn(C)c(=O)c3ccccc23)cc1F
#25 COc1ccc(NCc2nnc(SCC(=O)Nc3ccc(OC)cc3OC)o2)cc1

entry no.,21,22,23,24,25
ALR inh,-31,29,4,.,56
rRNA inh HTS,-5,-3,5,1,.
rRNA inh HTS OD600,4,-7,2,-11,.
rRNA inh HTS RFP,-2.9,-2.2,0.6,1.1,.
T cruzi inh,-2,0,-6,.,0
FGF22 binding,i,i,i,i,.
Calb FLC,8,7,4,.,0
Beta apoptosis,-1,2,0,0,5
AF4-AF9 inh,-0.8,-4.3,-4.5,0.5,-0.8
RanGTP-Imp inh,0.8,5.9,0.1,.,-3.0

3 compounds from above, arranged by molecular weight, high to low:
#8 CCOc1cc(N2CCOCC2)c(OCC)cc1NC(=O)COc1ncnc2ccccc12
#18 COc1ccc(C)cc1NC(=O)CCS(=O)(=O)c1ccc2c(c1)CCN2C(C)=O
#16 Cc1ccc(CNC(=O)c2ccccc2NS(C)(=O)=O)cc1

entry no.,8,18,16
ALR inh,-4,-9,0
rRNA inh HTS,.,6,.
rRNA inh HTS OD600,.,10,.
rRNA inh HTS RFP,.,-0.5,.
T cruzi inh,-13,6,-6
FGF22 binding,.,.,.
Calb FLC,12,-34,14
Beta apoptosis,-2,-7,-2
AF4-AF9 inh,.,0.7,.
RanGTP-Imp inh,7.2,3.9,6.3

Further entries follow.
#26 O=C1C=C(c2ccc3[nH]ccc3c2)CCC1
#27 CCCOc1ccc(N2C(=O)CC(N3CCCC(C(=O)N4CCCC4)C3)C2=O)cc1 (stereo not drawn)
#28 O=C(NCCO)c1cccc2c1-c1ccccc1C2=O
#29 O=C1CCCc2ccccc2N1Cc1cccc(F)c1
#30 Cc1n(-c2ccccc2)c2ccc(Cl)cc2[n+]1CCO
#31 COc1ccc(-c2nc3ccccc3c(C(=O)Nc3ccc(S(=O)(=O)Nc4cc(C)on4)cc3)c2C)cc1
#32 CN(c1ccccc1)c1nc(N)c([N+](=O)[O-])c(Nc2ccc(F)cc2)n1

entry no.,26,27,28,29,30,31,32
ALR inh,-10,-2,-3,-3,6,.,-5
rRNA inh HTS,-7,.,11,-32,20,.,16
rRNA inh HTS OD600,-8,.,9,-44,17,.,14
rRNA inh HTS RFP,-3.9,.,3.5,-12,0.4,.,4.5
T cruzi inh,-6,4,-3,-7,-14,-8,50
FGF22 binding,i,.,i,i,i,.,i
Calb FLC,-14,0,-9,-7,-23,4,-14
Beta apoptosis,-2,-3,-3,-3,-1,3,-4
AF4-AF9 inh,-2.2,.,-6.8,0.4,-2.2,.,2.2
RanGTP-Imp inh,1.5,-2.6,-1.6,3.6,2.5,9.5,0.3

Among those listed so far, 6 contain an NH in an aromatic ring:
#9 Cc1[nH]nc2c1C(CC(C)C)C(C#N)=C(N)O2 (stereo not drawn)
#15 C=CCOc1ccc(C(c2c(C(=O)O)[nH]c3ccccc23)c2c(C(=O)O)[nH]c3ccccc23)cc1
#17 O=C(CSc1n[nH]c(-c2ccccc2)n1)Nc1ccc(N2CCOCC2)cc1
#19 O=C(CSCc1nc2ccccc2[nH]1)N1CCN(c2ccc(F)cc2)CC1
#22 C=CCn1c(-c2csc(-c3ccc(OC)c(OC)c3)n2)n[nH]c1=S
#26 O=C1C=C(c2ccc3[nH]ccc3c2)CCC1

entry no.,9,15,17,19,22,26
ALR inh,18,10,41,63,29,-10
rRNA inh HTS,4,0,0,.,-3,-7
rRNA inh HTS OD600,7,7,6,.,-7,-8
rRNA inh HTS RFP,-1.8,1.7,-0.4,.,-2.2,-3.9
T cruzi inh,-25,-5,-8,-7,0,-6
FGF22 binding,i,i,i,.,i,i
Calb FLC,-11,-7,-16,-2,7,-14
Beta apoptosis,4,2,23,4,2,-2
AF4-AF9 inh,-6.6,-3.1,-2.2,.,-4.3,-2.2
RanGTP-Imp inh,-1.8,-0.6,-1.1,4.7,5.9,1.5

Bioassay records from PubChem BioAssay.
